rRNA inh HTS: inhibits bacterial ribosomal RNA function over humanized ribosomes. E. coli WT GFP vs humanized-ribosome RFP mutants, fluorescence, 24 h; hits give low values; DMSO median 0, no signal -100. GFP signal change (wild-type ribosome), % (test concentration not listed). 1.6% of 350,000 active. AID 720706;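 active means significant combined selectivity score with lowered wild-type GFP, culture density cut under 30%, mutant RFP and density less affected; inactive means any of these conditions unmet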; further: one replicate is shown; some compounds called inactive have numbers as strong as hits
T cruzi repl: T. cruzi replication inhibition | T. cruzi beta-gal in NIH3T3, luminescence, 90 h | inhibition, % (test concentration not listed) | 1.4% of 300,000 active | AID 1885;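 active means mean inhibition across valid replicates above about 55%, limit read from the data; inconclusive means mean below that limit but half or more replicates reach it; inactive means mean below it, under half of replicates reach it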;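 further: signal also drops with host cell toxicity which is not excluded here; 0% = plate median of DMSO wells and 100% = zero luminescence signal; higher percent means less beta-gal luminescence so fewer parasites; stock transfer was 50 nL into about 50 µL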
Calb FLC: affects C. albicans growth with fluconazole; C. albicans CaCi-2 (fluconazole-resistant clinical isolate) + fluconazole, Alamar Blue growth, 48 h; growth inhibition, % (concentration not given with the values); 0.57% of 300,000 active; AID 1979;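 active means most replicates above 75%; inconclusive means exactly half above 75%; inactive means most below 75%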;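 further: all wells also contain fluconazole at 8 µg/ml as a sub-toxic cotreatment; 0% = median of DMSO wells and 100% = median of geldanamycin control wells; wells of about 8 µL received 7.5 nL stock; the first replicate is given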
Beta apoptosis: beta cell apoptosis inhibition. INS-1E cytokine-induced death, ATP luminescence, 48 h; percent of positive-control rescue, neutral wells zero. protection from apoptosis, % (concentration not given with the values). 0.8% of 300,000 active. AID 435005;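 active means all replicates at 75% or more, or half of them and the mean; inconclusive means half reach 75% but not the mean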;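 further: 0% = cytokine-treated negative control wells and 100% = positive control rescue; higher means more ATP so stronger rescue from cytokine killing; wells of about 40 µL received 100 nL stock; the first replicate is given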
A1 inh: inhibitors of the anti-apoptotic protein A1, read as caspase activation. MEF A1-2A-BIM cells, Caspase-Glo 3/7 luminescence, 3 h; percent of clofoctol response, vehicle zero. caspase activation, % (concentration not given with the values). 0.066% of 330,000 active. AID 2462;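 active means over half of replicate activation scores above 10%, or exactly half above 10 with the replicate mean above 10; inconclusive means replicate mean below 10 yet half the replicates above 10; inactive means over half of replicates below 10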;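 further: wells of about 30 µL received 50 nL stock; many hits fall short of the cut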
MLL AF4-AF9 inh: inhibitors of human MLL-AF4/AF9 interaction | inhibition, % at 10 µM | AID 651704 | AlphaScreen, biotin-AF4 peptide binding to FLAG-AF9 | P42568 | 0.47% of 350,000 active;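 active means every replicate reaching a set inhibition limit, whatever the replicate mean, cut at about 25% in these data; inconclusive means mean inhibition reaches that limit but some replicates miss it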;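 further: 0% = plate neutral control median and 100% = total signal loss; the record names both 10 and 1 µM as test concentration; the first replicate is given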
Target sequence (P42568 whole entry, looked up): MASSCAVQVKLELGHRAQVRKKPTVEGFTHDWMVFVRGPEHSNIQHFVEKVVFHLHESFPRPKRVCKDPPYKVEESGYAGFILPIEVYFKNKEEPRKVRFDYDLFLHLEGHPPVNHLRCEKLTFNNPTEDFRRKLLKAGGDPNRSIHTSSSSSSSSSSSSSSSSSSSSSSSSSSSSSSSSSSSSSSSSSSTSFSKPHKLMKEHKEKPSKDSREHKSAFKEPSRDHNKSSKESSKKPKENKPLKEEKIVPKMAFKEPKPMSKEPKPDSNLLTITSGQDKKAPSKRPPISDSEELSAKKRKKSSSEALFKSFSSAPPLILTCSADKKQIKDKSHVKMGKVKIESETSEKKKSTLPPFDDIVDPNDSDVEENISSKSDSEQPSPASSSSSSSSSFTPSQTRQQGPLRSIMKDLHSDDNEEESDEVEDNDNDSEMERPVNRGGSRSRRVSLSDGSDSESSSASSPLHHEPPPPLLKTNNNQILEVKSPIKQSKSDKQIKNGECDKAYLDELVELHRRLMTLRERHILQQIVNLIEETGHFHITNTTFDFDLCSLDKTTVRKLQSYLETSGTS
RanGTP-Impb inh: disruptors of Ran-importin-beta complex formation – biochemical, FRET, CFP-Ran, YFP-importin-beta, homogeneous, primary screen; cell-free CFP-Ran/YFP-importin-beta FRET ratio; inhibition, % (test concentration not listed); 1.1% of 300,000 active; AID 2216;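 active means most replicates above 15%; inconclusive means exactly half above 15%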;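 further: 0% = DMSO wells and 100% = Ran loaded with GDP instead of GTP; wells of about 40 µL received 100 nL stock; the first replicate is given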
Vif TR-FRET: inhibitors of Vif binding to APOBEC3G peptide, primary screen, biochemical, TR-FRET, GST-Vif 1-94, biotin-A3G peptide, dose response retest (AID 1117319) | 0.57% of 260,000 active | inhibition, %; hits with a dose series show IC50 in µM | TR-FRET GST-Vif / biotin-A3G peptide binding; higher % means a stronger effect; test concentration not given here; strong numbers were not always called active;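 active means above the screen mean plus three standard deviations and confirmed in dose response; inconclusive means results disagree or hit not tested in dose response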;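 further: Vif residues 1-94 fused to GST binding biotinylated APOBEC3G peptide 110-148; 0% = full assay without inhibitor and 100% = GST in place of GST-Vif; retest series ran down from 100 µM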
rRNA inh HTS OD600: further read-out of rRNA inh HTS, marked with its call; OD600 change, %; measured here: OD600 growth;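 optical density of the mix in the first replicate; 0 = DMSO median and -100 = no signal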
rRNA inh HTS RFP: also measured in rRNA inh HTS; calls as there; RFP signal change, %; measured here: RFP humanized mutant strains;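 first replicate; 0 = DMSO median and -100 = no signal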
* marks the source's active call; other numbers are inactive results; & = joins results of further samples. These rows are one share of the data, so the mix of outcomes need not match the whole.

For COc1ccc(-n2nc3c(N)n[nH]c3cc2=O)cc1 the results were rRNA inh HTS 4, T cruzi repl -10, Calb FLC -1, Beta apoptosis -7, A1 inh 0.7, MLL AF4-AF9 inh -2.8, RanGTP-Impb inh -14, Vif TR-FRET inconclusive, rRNA inh HTS OD600 7 and rRNA inh HTS RFP -2.1.
COc1ccc(CC(=O)NC2CCCc3ccccc32)cc1 (centres undefined) was read as rRNA inh HTS -2, T cruzi repl -13, Calb FLC 11, Beta apoptosis 2, A1 inh 1.1, MLL AF4-AF9 inh -2.5, RanGTP-Impb inh -2.2, Vif TR-FRET 15%, rRNA inh HTS OD600 -11 and rRNA inh HTS RFP -2.1.
`CCOC(=O)C1(Cc2ccc(OC)cc2)CCN(C(=O)c2cccc3nccnc23)CC1` gave rRNA inh HTS 4, T cruzi repl -8, Calb FLC 22, Beta apoptosis -1, A1 inh 0.6, MLL AF4-AF9 inh -1.4, RanGTP-Impb inh -3.0, Vif TR-FRET 72%, rRNA inh HTS OD600 6 and rRNA inh HTS RFP 0.3.
Screening Cc1cccn2cc(COc3ccc(-c4ccccc4)cc3)nc12 returned rRNA inh HTS -12, T cruzi repl 21, Calb FLC -34, MLL AF4-AF9 inh -4.4, RanGTP-Impb inh -2.4, Vif TR-FRET 12%, rRNA inh HTS OD600 -17 and rRNA inh HTS RFP 15.
`COc1ccc(/C=C(/NC(=O)c2ccccc2)C(=O)NCc2ccco2)cc1` gave rRNA inh HTS 2, T cruzi repl -7, Calb FLC -11, Beta apoptosis 3, A1 inh 0.4, MLL AF4-AF9 inh -1.4, RanGTP-Impb inh 2.4, rRNA inh HTS OD600 8 and rRNA inh HTS RFP 0.0.
For Cc1ccn2cc(-c3cccc(NC(=O)CCC(=O)O)c3)nc2c1 the results were rRNA inh HTS 13, T cruzi repl -10, Calb FLC -6, Beta apoptosis 11, A1 inh -5.1, MLL AF4-AF9 inh 0.8, RanGTP-Impb inh -3.6, rRNA inh HTS OD600 16 and rRNA inh HTS RFP 2.1.
CCOC(=O)N1CCN(C(=O)CCN2C(=O)COc3ccccc32)CC1 was read as T cruzi repl -12, Calb FLC 2, Beta apoptosis 4, A1 inh 0.3, RanGTP-Impb inh 4.5 and Vif TR-FRET -2%.
Cc1ccc(NC(=O)CSc2nc(N)cc(=O)[nH]2)cc1S(=O)(=O)N1CCOCC1 was read as rRNA inh HTS 12, T cruzi repl -11, Calb FLC 3, Beta apoptosis 6, A1 inh 0.1, MLL AF4-AF9 inh 3.4, RanGTP-Impb inh -5.4, rRNA inh HTS OD600 2 and rRNA inh HTS RFP -0.8.
For Cc1ccc(CCNS(=O)(=O)c2cc3c(cc2C)NC(=O)CO3)cc1 the results were rRNA inh HTS -1, T cruzi repl -1, Calb FLC -3, Beta apoptosis 2, A1 inh 1.0, MLL AF4-AF9 inh -8.9, RanGTP-Impb inh 2.6, rRNA inh HTS OD600 -21 and rRNA inh HTS RFP 3.3.
CC1CN(C(=S)Nc2ccccc2)CC(C)O1 (centres undefined) was read as rRNA inh HTS 11, T cruzi repl -11, Calb FLC 32, Beta apoptosis -10, A1 inh 0.1, MLL AF4-AF9 inh 0.3, RanGTP-Impb inh -5.5, rRNA inh HTS OD600 15 and rRNA inh HTS RFP 1.0.
`S=c1nn[nH]n1C12CC3CC(CC(C3)C1)C2` gave T cruzi repl -30, Calb FLC 7, Beta apoptosis 0, A1 inh 0.4, RanGTP-Impb inh 0.6 and Vif TR-FRET 15%.
`N#Cc1nc(-c2ccco2)oc1NCCCn1ccnc1` gave T cruzi repl -7, Calb FLC inconclusive, Beta apoptosis 3, A1 inh 1.2, RanGTP-Impb inh -2.8 and Vif TR-FRET -6%.
For COc1ccc([C@H]2CC(=O)c3c(O)cc(O)cc3O2)cc1O the results were rRNA inh HTS -23*, T cruzi repl -24, Calb FLC -6, Beta apoptosis -2, A1 inh -0.5, MLL AF4-AF9 inh -0.6, RanGTP-Impb inh -0.8, Vif TR-FRET 10%, rRNA inh HTS OD600 -17* and rRNA inh HTS RFP -0.2*.
`O=C(O)c1ccc(CNC(=O)c2ccc3c(c2)OCCO3)cc1` gave rRNA inh HTS 6, T cruzi repl -2, Calb FLC 5, Beta apoptosis -2, A1 inh 0.2, MLL AF4-AF9 inh -6.6, RanGTP-Impb inh -3.2, rRNA inh HTS OD600 10 and rRNA inh HTS RFP -1.6.
CCN(CC)C(=O)Cn1cc(S(=O)(=O)CC(=O)N2CC(C)OC(C)C2)c2ccccc21 (centres undefined) was read as rRNA inh HTS 2, T cruzi repl -6, Calb FLC -9, Beta apoptosis -5, A1 inh 0.0, MLL AF4-AF9 inh -0.3, RanGTP-Impb inh 0.8, Vif TR-FRET -8%, rRNA inh HTS OD600 4 and rRNA inh HTS RFP -1.4.
Screening O=C1N/C(=N/O)S/C1=C\c1ccccc1-n1cccn1 returned rRNA inh HTS 1, T cruzi repl 1, Calb FLC inconclusive, Beta apoptosis 0, A1 inh 0.5, MLL AF4-AF9 inh -9.0, RanGTP-Impb inh 4.3, Vif TR-FRET inconclusive, rRNA inh HTS OD600 2 and rRNA inh HTS RFP 0.0.
O=C(Cc1n[nH]c(=O)c2ccccc12)Nc1cccc(S(=O)(=O)N2CCCCCC2)c1 was read as Beta apoptosis 12, A1 inh 0.6, MLL AF4-AF9 inh 3.6 and Vif TR-FRET -16%.
`NC(=O)C1CCN(Cc2nc(-c3ccccc3)no2)CC1` gave T cruzi repl -11, Calb FLC 0, Beta apoptosis -7, A1 inh 0.2, RanGTP-Impb inh -2.4 and Vif TR-FRET 0%.
O=C(Nc1nnc(SCc2c(Cl)cccc2Cl)s1)C1CC(=O)N(c2ccc3c(c2)OCCO3)C1 (centres undefined) was read as rRNA inh HTS 14, T cruzi repl 46, Calb FLC 8, Beta apoptosis -1, A1 inh -0.2, MLL AF4-AF9 inh -0.7, RanGTP-Impb inh -1.7, rRNA inh HTS OD600 10 and rRNA inh HTS RFP 3.4.
CCN(CC)CCCN=Cc1c(O)n(-c2c(C)cccc2C)c(=O)c2ccccc12 was read as rRNA inh HTS 7, T cruzi repl 9, Calb FLC 16, Beta apoptosis 0, A1 inh -0.1, MLL AF4-AF9 inh 7.0, RanGTP-Impb inh 2.9, Vif TR-FRET -13%, rRNA inh HTS OD600 4 and rRNA inh HTS RFP 0.4.
Screening CCCCC(O)(c1ccc(OC)cc1)C(CN1CCOCC1)c1ccccc1 (centres undefined) returned rRNA inh HTS -33, T cruzi repl -30, Calb FLC 2, Beta apoptosis 1, A1 inh 0.0, MLL AF4-AF9 inh 3.5, RanGTP-Impb inh inconclusive, Vif TR-FRET -3%, rRNA inh HTS OD600 -37 and rRNA inh HTS RFP -3.2.
Cc1c(CCOC(=O)C23CC4CC(CC(C)(C4)C2)C3)sc[n+]1Cc1ccccc1 was read as T cruzi repl inconclusive, Calb FLC 101*, Beta apoptosis 34, A1 inh 0.4, RanGTP-Impb inh 2.7 and Vif TR-FRET -2%.
For O=C(/C=C/c1ccc(-c2ccccc2[N+](=O)[O-])o1)c1ccc(Br)cc1 the results were T cruzi repl 11, Calb FLC 9, Beta apoptosis -6, A1 inh 0.1, RanGTP-Impb inh 2.3 and Vif TR-FRET inconclusive.
Screening COc1ccc(O[C@H]2C=C[C@@H](c3ccccc3)O[C@@H]2COC(=O)CC/C(C)=N/O[C@@H](C)CN2CCCCc3nc(C)c(C)cc32)cc1 returned T cruzi repl 32, Calb FLC -6, RanGTP-Impb inh 2.2 and Vif TR-FRET 32%.
C=CCn1c(SCC(=O)Nc2ccc3c(c2)OCO3)nnc1-c1ccccc1 was read as T cruzi repl 2, Calb FLC -6, Beta apoptosis 0, A1 inh -2.0, RanGTP-Impb inh 2.5 and Vif TR-FRET 1%.
CC(C)(C)OC(=O)Nc1ccc([C@H](NC(=O)OC(C)(C)C)C(=O)OC(C)(C)C)cc1 was read as rRNA inh HTS 3, Beta apoptosis -1, A1 inh -0.8, MLL AF4-AF9 inh -0.3, rRNA inh HTS OD600 2 and rRNA inh HTS RFP 0.1.
Screening Clc1ccccc1CSc1nnc(-c2ccccn2)n1Cc1ccco1 returned T cruzi repl 18, Calb FLC 34, Beta apoptosis -1, A1 inh -0.1, RanGTP-Impb inh -1.8 and Vif TR-FRET 17%.
Screening CCN(CC)C(=O)COC(=O)c1ccc(O)cc1 returned T cruzi repl -18, Calb FLC -6, Beta apoptosis -3, A1 inh -0.6, RanGTP-Impb inh -0.3 and Vif TR-FRET 3%.
For O=C(NCCc1ccccn1)c1cncc(Br)c1 the results were rRNA inh HTS 5, T cruzi repl -6, Calb FLC 4, Beta apoptosis -3, A1 inh -0.5, MLL AF4-AF9 inh 1.6, RanGTP-Impb inh inconclusive, rRNA inh HTS OD600 12 and rRNA inh HTS RFP 1.0.
Screening CCCc1cc(N2CCCC2)n2nc(C)c(-c3ccccc3)c2n1 returned T cruzi repl -11, Calb FLC -2, Beta apoptosis 21, A1 inh -0.6, RanGTP-Impb inh -2.8 and Vif TR-FRET 7%.
Screening Cc1noc(C)c1C(=O)OCC(=O)Nc1cc(Cl)ccc1Oc1ccccc1 returned T cruzi repl 4, Calb FLC -7, Beta apoptosis 0, A1 inh 0.0, RanGTP-Impb inh 0.5 and Vif TR-FRET 9%.
For CCOC(=O)c1c(NC(=O)CSc2nnnn2-c2ccc(OC)cc2)sc(C)c1C the results were T cruzi repl 23, Calb FLC -13, Beta apoptosis -4, A1 inh 1.2, RanGTP-Impb inh 2.0 and Vif TR-FRET inconclusive.
`CN(CC(=O)Nc1ccc(F)cc1)C(=O)COC(=O)c1ccc(-c2ccccc2)cc1` gave rRNA inh HTS 0, T cruzi repl -7, Calb FLC 1, Beta apoptosis 10, A1 inh -0.7, MLL AF4-AF9 inh -6.0, RanGTP-Impb inh 0.9, Vif TR-FRET -2%, rRNA inh HTS OD600 0 and rRNA inh HTS RFP -1.6.
Screening CCOc1ccccc1NC(=S)N(CCOC)C1CCN(C(C)=O)CC1 returned rRNA inh HTS 4, T cruzi repl -8, Calb FLC 0, Beta apoptosis 2, A1 inh 0.8, MLL AF4-AF9 inh 1.0, RanGTP-Impb inh 1.7, Vif TR-FRET -9%, rRNA inh HTS OD600 2 and rRNA inh HTS RFP -1.2.
For Cc1ccc(NS(=O)(=O)c2cccc(C(=O)N3CCN(C(=O)c4ccco4)CC3)c2)cc1 the results were rRNA inh HTS -14, Beta apoptosis 3, A1 inh 0.3, MLL AF4-AF9 inh 1.3, Vif TR-FRET -1%, rRNA inh HTS OD600 -12 and rRNA inh HTS RFP 4.3.
`CC(C)(C)Nc1nc(Oc2ccc(=O)n(-c3ccccc3)n2)nc(N2CCOCC2)n1` gave T cruzi repl 17, Calb FLC 23, Beta apoptosis 3, A1 inh -0.2, RanGTP-Impb inh 1.8 and Vif TR-FRET 2%&-11%.

Screening results as filed in PubChem BioAssay.
